High-throughput results as filed in PubChem BioAssay.
KCNQ2 inh = KCNQ2 channel blockers in CHO-K1 cells – cell-based, FluxOR thallium flux, B-score, primary screen (AID 2156); O88943; B-score at 10 µM; 20 min; active compounds read low; only compounds with negative scores are shown here; some inactives read as strong as hits; actives 1.1% (n = 310,000);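 active = fluorescence ratio B-score at most minus 3 library SDs, with starting brightness B-score within 2 library SDs, cut at about -5.5 in these data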
Target sequence (O88943 whole entry, looked up): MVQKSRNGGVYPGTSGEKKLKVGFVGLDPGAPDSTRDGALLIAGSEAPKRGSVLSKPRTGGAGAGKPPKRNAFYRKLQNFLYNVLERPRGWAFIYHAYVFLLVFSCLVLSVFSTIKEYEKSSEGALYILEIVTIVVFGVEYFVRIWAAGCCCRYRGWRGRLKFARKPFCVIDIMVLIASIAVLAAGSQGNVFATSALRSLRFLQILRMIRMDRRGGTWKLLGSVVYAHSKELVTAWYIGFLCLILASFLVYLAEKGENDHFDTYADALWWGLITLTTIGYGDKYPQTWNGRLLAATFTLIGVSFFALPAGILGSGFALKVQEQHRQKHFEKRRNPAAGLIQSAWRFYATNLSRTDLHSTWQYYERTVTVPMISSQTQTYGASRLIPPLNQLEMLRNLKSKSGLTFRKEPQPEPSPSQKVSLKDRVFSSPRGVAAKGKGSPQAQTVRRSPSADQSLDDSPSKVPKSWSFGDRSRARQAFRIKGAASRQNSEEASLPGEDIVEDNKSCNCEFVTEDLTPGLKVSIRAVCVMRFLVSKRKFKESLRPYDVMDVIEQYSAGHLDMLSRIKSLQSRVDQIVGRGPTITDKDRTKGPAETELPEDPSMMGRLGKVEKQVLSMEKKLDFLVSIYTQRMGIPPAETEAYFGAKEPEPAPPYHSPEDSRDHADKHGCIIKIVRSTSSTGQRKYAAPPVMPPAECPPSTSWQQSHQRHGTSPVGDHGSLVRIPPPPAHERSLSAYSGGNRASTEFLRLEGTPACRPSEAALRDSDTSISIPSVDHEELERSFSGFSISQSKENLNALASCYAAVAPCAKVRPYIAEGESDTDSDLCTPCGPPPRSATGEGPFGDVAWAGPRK
KCNQ2 inh baseline = also measured in KCNQ2 inh; calls as there; B-score; measured here: initial fluorescence intensity artifact check;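 brightness before thallium and not channel activity; 0 = typical well and far values either way flag optical interference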
The depositor's hits bear a star; i = inactive. The list is partial; count on the stated rates, not on these rows.

Second line of a record – KCNQ2 inh, KCNQ2 inh baseline
> COc1ccc(C)cc1NC(=O)NNC(=O)c1cc2ccccc2cc1O
  i, 0.47
> N#Cc1nc(COc2ccccc2)oc1N1CCN(c2cccc(Cl)c2)CC1
  -5.9*, 1.1*
> CC1CCN(CC(=O)N2CC(=O)Nc3ccccc32)CC1
  i, 1.6
> CCN(C(=O)CCS(=O)(=O)c1cccc2nonc12)c1ccc(F)cc1
  i, -0.11
> CCOC(=O)c1c(NC(=O)Cc2cccs2)sc(C(=O)N2CCCCC2)c1C
  i, -2.1
> O=c1oc(Nc2ccccc2F)nc2ccccc12
  i, -0.88
> COc1ccc(CCNc2nc(=O)[nH]nc2C)cc1OC
  i, -1.4
> COc1ccc([N+](=O)[O-])cc1NC(=O)COC(=O)c1ccccc1O
  i, -0.17
> CC(C)OC(=O)c1cc(-c2ccc(C=O)o2)ccc1Cl
  i, -2.4
> CCc1c(C)nc(SCC(=O)N2CCCCC2CC)[nH]c1=O (stereo unspecified)
  i, -0.2
> CC(C)CCN1C(=O)CC(NNC(=O)c2ccc(S(=O)(=O)N3CCCC3)cc2)C1=O (stereo unspecified)
  i, -0.7
> O=C(CCN1CCc2ccccc2C(c2ccccc2)C1)c1ccc2c(c1)OCCO2 (stereo unspecified)
  i, 1.6
> Cc1ccc(C(=O)C(OC(=O)c2c(C)cc(=O)oc2C)c2ccccc2)cc1 (stereo unspecified)
  i, 1.7
> c1ccc2c(c1)CCN(c1nc(CN3CCOCC3)nc3sc4c(c13)CCCC4)C2
  i, -1.8
> O=C(/C=C/c1cccc([N+](=O)[O-])c1)NCCN1C(=O)S/C(=C\c2cccnc2)C1=O
  i, 0.14
> O=c1c2ccsc2ncn1Cc1cccc(C(F)(F)F)c1
  i, -0.01
> COc1ccc(-c2csc(/C(C#N)=C/Nc3cc4oc5ccccc5c4cc3OC)n2)cc1
  i, -3.5
> COc1ccc(C(=O)O)cc1S(=O)(=O)Nc1cccc(C(F)(F)F)c1
  i, 4.4
> CCS(=O)(=O)NC(C)C(c1cccs1)N1CCN(c2ccc(F)cc2)CC1 (stereo unspecified)
  i, 0.79
> Nc1ccn([C@H]2CC[C@@H](CO)O2)c(=O)n1
  i, -0.82
> O=C(CSc1nc2[nH]ncc2c(=O)n1-c1ccccc1)NCCc1ccccc1
  i, 1.3
> Cc1ccc(C(=O)NNC(=O)c2ccccc2O)cc1S(=O)(=O)N1CCCCC1
  i, -0.75
> Cc1ccc(C)c(NC(=O)C(CC(=O)O)Cc2ccccc2)c1 (stereo unspecified)
  i, 0.17
> Cc1cc(C)n(CC(=O)N/N=C/c2cccs2)n1
  i, 1.1
> O=S(=O)(c1ccc(Br)cc1Cl)N1CCN(CCO)CC1
  i, 1.7
> CCC(CC)NC(=O)Cn1c(C(C)NC(C)=O)nc2ccccc21 (stereo unspecified)
  i, 0.33
> O=C(NC1CCCC1)c1ccc(CNc2c(N3CCOCC3)c(=O)c2=O)cc1
  i, 0.63
> O=C(NC1CCCC1)c1cc(-c2ccccc2Cl)on1
  i, 0.74
> Cc1ccn(CCC(=O)N2CCc3ccccc32)n1
  i, 1.4
> NC(=S)N/N=C/c1ccc(-n2nncc2-c2ccc(Cl)cc2)cc1
  i, 0.03

6 records picked at random from the list so far:
Second line of a record – KCNQ2 inh, KCNQ2 inh baseline
> c1ccc2c(c1)CCN(c1nc(CN3CCOCC3)nc3sc4c(c13)CCCC4)C2
  i, -1.8
> O=C(NC1CCCC1)c1ccc(CNc2c(N3CCOCC3)c(=O)c2=O)cc1
  i, 0.63
> COc1ccc(-c2csc(/C(C#N)=C/Nc3cc4oc5ccccc5c4cc3OC)n2)cc1
  i, -3.5
> O=C(CSc1nc2[nH]ncc2c(=O)n1-c1ccccc1)NCCc1ccccc1
  i, 1.3
> O=S(=O)(c1ccc(Br)cc1Cl)N1CCN(CCO)CC1
  i, 1.7
> O=C(NC1CCCC1)c1cc(-c2ccccc2Cl)on1
  i, 0.74

(further entries)
Second line of a record – KCNQ2 inh, KCNQ2 inh baseline
> O=C1CC(c2ccco2)CC(O)=C1C=NCCN1CCNCC1 (stereo unspecified)
  i, -0.2
> COc1ccc(-c2csc(NCCc3nc4cc(Cl)c(N5CCCCC5)cc4n3CCOCCO)n2)cc1
  i, -0.74
> NC(=O)COC(=O)c1cc([N+](=O)[O-])ccc1NCCO
  i, -0.01
> COC(=O)c1cc(C#N)c(OC)nc1C
  i, 0.51
> COc1ccc(/C=C/C(=O)NC2CCCCCC2)cc1S(=O)(=O)N1CCOCC1
  i, -0.22
> CNC(=S)NNC(=O)c1cn(C)nc1C
  i, 2
> CC(=O)N1CCc2cc(S(=O)(=O)NCC(=O)NCc3ccc(Cl)cc3)ccc21
  i, -1.6
> CC(=O)CC(=O)Nc1ccn(-c2ccccc2)n1
  i, -0.42
> CC(Cc1nnc(SCC(=O)O)n1N)c1ccccc1 (stereo unspecified)
  i, -0.45
> CSc1nnc2ccc(-c3ccccn3)nn12
  i, -0.54
> COc1ccc(Cl)cc1N1C(=O)C2CCCN2C1c1ccc(F)cc1 (stereo unspecified)
  i, -0.06
> CCN=C1S/C(=C\c2cn(CC(=O)NCCOC)c3ccccc23)C(=O)N1CC
  i, -1.1
> CCOc1ccc2nc(CN3CCN(Cc4ccsc4)C(CCO)C3)ccc2c1 (stereo unspecified)
  i, 3
> COc1ccc2oc(C(=O)N(C)CCOc3ccccc3)c(C)c2c1
  i, -0.22
> Cc1cccc(NS(=O)(=O)c2cc(C(=O)OC(C)C(=O)NCc3ccc4c(c3)OCO4)ccc2C)c1 (stereo unspecified)
  -6.4*, 0.93*
> O=C1C(Cl)=C(Nc2ccccc2O)C(=O)N1c1ccccc1
  i, 0.45
> CCOC(=O)N1CCC(NC(=O)c2ccc3c(c2)N=C(C)c2c(C)ccc(C)c2S3)CC1
  i, 1
> O=C(O)c1ccc(Cl)c(N2C(=O)Nc3ccccc3N2O)c1
  i, -0.42
> Cc1ccc(CNC(=O)CNS(=O)(=O)c2ccc3c(c2)C(C)(C)C(=O)N3C)cc1
  i, -0.43
> CCOc1ccc(C(C(=O)NCCOC)N(CCOC)C(=O)CCC(=O)Nc2ccccn2)cc1 (stereo unspecified)
  i, 1.2
> Cc1cccc(-n2ncc3c(N)ncnc32)c1
  i, 0.62
> CCOc1ccc(CCNC(=O)CCc2nc(-c3ccc(OC)cc3)no2)cc1OCC
  i, 1.4
> COc1ccc(-c2onc3ccc(C(C)=O)cc23)cc1
  i, 8.6
> Cc1ccccc1S(=O)(=O)Cc1ccc(C(=O)NCCc2ccccc2)o1
  i, 0.74
> O=C(c1sc2ccccc2c1Cl)N(Cc1ccccc1Cl)C1CCS(=O)(=O)C1 (stereo unspecified)
  i, -1.3
> Cc1cc(C)nc(N(C#N)CN2C(=O)c3ccccc3C2=O)n1
  i, -0.19
> COc1ccc(OCC(=O)N/N=C\c2ccco2)cc1
  i, -2.2
> Clc1ccc(CCNc2nc3ccccc3s2)cc1
  i, -0.46
> Cc1ccc(S(=O)(=O)CCC(=O)OCc2cc(C)ccc2C)cc1
  i, 0.39
> Cc1c(Cl)cccc1NS(=O)(=O)c1ccc(-c2ccc(=O)[nH]n2)o1
  i, 1.2
> CCNc1nc(NCC)nc(SCCOC(=O)Nc2ccc(Cl)cc2Cl)n1
  i, 0.5
> CCOC(=O)c1sc2ncnc(N3CCN(CC)CC3)c2c1C
  i, 0.28
> O=C(COc1cccc2ccccc12)NNC(=O)C1CCCO1 (stereo unspecified)
  i, 0.31
> COc1ccc(/C=N/N=C2/NC(=O)C(CC(=O)NC(N)=O)S2)cc1 (stereo unspecified)
  i, -0.01
> COc1cc(C(=O)OC2CC3CCC2(C)C3(C)C)ccc1OC(C)=O (stereo unspecified)
  -5.7*, -0.42*
> Cc1ccc(NC(=O)CO/N=C/c2ccc(N(C)C)cc2)cc1
  i, 0.25
> CC(=O)c1c(C)[nH]c(C(=O)Nc2ccc(C)cc2Br)c1C
  i, -1.3
> CCC(C)(C(=O)Nc1ccc2c(c1)OCCO2)N(C(C)=O)c1ccc(C(N)=O)cc1 (stereo unspecified)
  i, -0.3
> COc1cc(CC(=O)Oc2ccc3c(c2)OCO3)cc(OC)c1OC
  i, 1
> COc1cccc(-c2nn[nH]n2)c1O
  i, -0.48
> Cc1ccc(Nc2c(N)c(=O)oc3ccccc23)cc1
  i, -0.28
> Cc1ccc(C2C(C=Nc3c(C)n(C)n(-c4ccccc4)c3=O)=C(c3ccccc3)Oc3ccccc32)cc1 (stereo unspecified)
  -11*, -0.66*
> Cc1nc(C(=O)Nc2cc(Cl)ccc2Cl)nn1-c1cc(OC(C)C)c(Cl)cc1Cl
  -6.4*, 2.4*
> O=C/C(=C\Nc1ccc(Br)cc1)c1nc2ccccc2o1
  i, 1.1
> Cc1ccc(S(=O)(=O)Oc2ccccc2/C=C2/SC(=O)NC2=O)cc1
  i, -0.83
> CCn1cc(Cl)c(C(=O)Nc2nc3ccccc3n2CCN2CCCCC2)n1
  i, 1.4
> CC(NC(=O)C(C)N1CCN(Cc2ccccc2)CC1)c1ccc(F)cc1 (stereo unspecified)
  i, 1.1
> CCn1c(SCC(=O)NC2CCCCC2)nnc1C(CO)NC(=O)c1ccccc1 (stereo unspecified)
  i, 0.21
> CCOC(=O)Nc1ccc2nc(N3CCCCCC3)sc2c1
  i, -0.35
> COc1ccc(C(=O)Nn2c(C)nc3ccccc3c2=O)c(OC)c1
  i, 0.82
> COc1ccc(OC)c(S(=O)(=O)Nc2ccc(C(C)=O)cc2)c1
  i, 0.12
> Cc1ccc(NC(=O)C(=O)NCCN2CCN(Cc3ccc([N+](=O)[O-])cc3)CC2)cc1
  i, -1
> NC(=O)c1ccc(NC(=O)COC(=O)c2c3c(nc4ccccc24)/C(=C\c2ccc4c(c2)OCO4)CCC3)cc1
  i, 4.4
> Cc1ccc(OCC(=O)NC(C)c2ccccc2)cc1 (stereo unspecified)
  i, 3.7
> COC(=O)Cc1c(C)c2ccc(OCC(=O)N3CCOCC3)cc2oc1=O
  i, -0.38
> CC(C)c1ccccc1N1CC(C(=O)O)CC1=O (stereo unspecified)
  i, 0.47
> O=C(NCCN1CCN(c2ccccc2F)CC1)c1cccn2c(=O)c3ccccc3nc12
  i, 1.3
> Fc1ccc(Cn2c(SCc3ccc(F)c(C(F)(F)F)c3)nnc2C(F)(F)F)cc1
  i, -2
> O=C(NC(=S)Nc1ccccc1Br)C1CCCC1
  i, -2.6
> Cc1cc(C)c2c(c1)-c1c(ssc1=S)C(C)(C)N2C(=O)CSc1nncn1C
  i, -1.2

A different layout for 2 compounds above:
O=C(COc1cccc2ccccc12)NNC(=O)C1CCCO1 (stereo unspecified)
  KCNQ2 inh = i	KCNQ2 inh baseline = 0.31
COc1ccc(/C=N/N=C2/NC(=O)C(CC(=O)NC(N)=O)S2)cc1 (stereo unspecified)
  KCNQ2 inh = i	KCNQ2 inh baseline = -0.01

Next section
Second line of a record – KCNQ2 inh, KCNQ2 inh baseline
> CC(OC(=O)C1=COCCO1)C(=O)Nc1ccccc1C#N (stereo unspecified)
  i, 0.23
> COCc1c(C(=O)N2CCN(Cc3c(F)cccc3Cl)CC2)oc2ccccc12
  i, 0.5
> Cc1ccc(-c2c[n+](Cc3cccc(Cl)c3)c3n2CCC3)cc1
  i, 0.1
> COc1ccc(CNC(=O)c2cc(-c3ccco3)on2)cc1
  i, -0.04
> C=CCN1C(=O)C2(NNc3ccccc3O2)c2ccccc21 (stereo unspecified)
  i, 0.32
> O=C(CN1CCOCC1)Nc1ncc(Br)cc1Br
  i, 1
> COc1ccc(C(=O)n2nc(-c3ccc(C)cc3)nc2N)cc1OC
  i, -1.7
> O=C(c1ccc(F)cc1)N1CCCC(c2nc(-c3cccs3)no2)C1 (stereo unspecified)
  i, 2.4
> CCN(CC)CCN1C(=O)C(=O)/C(=C(/O)c2ccc(S(=O)(=O)N3CCOCC3)cc2)C1c1ccc(C(C)C)cc1 (stereo unspecified)
  i, -0.18
> CCC(CC)c1nnc(NC(=O)COc2ccc3c(C)cc(=O)oc3c2)s1
  i, -0.17
> c1ccc(SCc2nc(-c3cccnc3)no2)cc1
  i, -0.12
> COc1ccc(Nc2nc(-c3cccs3)nc3ccccc23)c(OC)c1
  i, 0.7
> COc1ccccc1CNC(=O)c1ccc(N(C)S(=O)(=O)c2ccc(C)cc2)cc1
  i, 1.3
> CCCCN(C)C(=O)C1CCN(Cc2ccc(OCc3ccccc3)cc2)CC1
  i, -1.3
> Cc1cnc(NC(=O)c2sc3ccccc3c2Cl)s1
  i, 0.59
> O=C(Nc1cccc(-c2ccc(N3CCCCC3)nn2)c1)c1ccc(Br)o1
  i, 0.37
> CC1CCN(c2ccc(C(=O)Nc3ccc4c(c3)OCO4)cc2[N+](=O)[O-])CC1
  i, -1.1
> O=C(O)C1Cc2[nH]cnc2C(c2cccc([N+](=O)[O-])c2)N1 (stereo unspecified)
  i, 0.59
> COc1ccc(-n2cnnc2SCC(=O)NC2CCCc3ccccc32)cc1 (stereo unspecified)
  i, -0.09
> COc1ccccc1CNC(=O)C(NC(=O)c1ccccc1)C(C)C (stereo unspecified)
  i, 0.01
> O=C(N/N=C/c1c[nH]c2ccccc12)C1CC1c1ccccc1 (stereo unspecified)
  i, -2.6
> O=C(CCCC(=O)OCC1CCCO1)OCC1CCCO1 (stereo unspecified)
  i, 1.6
> Cc1cccc(CSc2cn(CC(=O)N3CCOCC3)c3ccccc23)c1
  i, -1.5
> C=CCNC(=O)c1ccccc1NC(=O)c1ccc(Cl)c(S(=O)(=O)Nc2ccccc2)c1
  i, -0.4
> Cc1ccnc2nc(C(=O)N3CCN(S(=O)(=O)c4ccccc4)CC3)nn12
  i, 0.04
> CCC(C)NC(=O)c1ccc2c(c1)N(Cc1ccccc1)C(=O)CS2 (stereo unspecified)
  i, 2.1
> O=C(Nc1ccccc1C(=O)NCCCn1ccnc1)c1ccc(Cl)cc1Cl
  i, -0.49
> Cc1cc(C(=O)NCc2ccc(F)cc2)c2ccccc2n1
  i, 0.59
